# KCNQ2 inh: KCNQ2 potassium channel inhibitors, primary screen, cell-based, CHO-K1, FluxOR thallium flux, B-score (AID 2156). 20 min; active compounds read low; only compounds with negative scores are shown here; some inactives read as strong as hits. B-score at 10 µM. actives 1.1% (n = 310,000);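 active means fluorescence ratio B-score at most minus 3 library SDs, with starting brightness B-score within 2 library SDs, cut at about -5.5 in these data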
# Target sequence (O88943 whole entry, looked up): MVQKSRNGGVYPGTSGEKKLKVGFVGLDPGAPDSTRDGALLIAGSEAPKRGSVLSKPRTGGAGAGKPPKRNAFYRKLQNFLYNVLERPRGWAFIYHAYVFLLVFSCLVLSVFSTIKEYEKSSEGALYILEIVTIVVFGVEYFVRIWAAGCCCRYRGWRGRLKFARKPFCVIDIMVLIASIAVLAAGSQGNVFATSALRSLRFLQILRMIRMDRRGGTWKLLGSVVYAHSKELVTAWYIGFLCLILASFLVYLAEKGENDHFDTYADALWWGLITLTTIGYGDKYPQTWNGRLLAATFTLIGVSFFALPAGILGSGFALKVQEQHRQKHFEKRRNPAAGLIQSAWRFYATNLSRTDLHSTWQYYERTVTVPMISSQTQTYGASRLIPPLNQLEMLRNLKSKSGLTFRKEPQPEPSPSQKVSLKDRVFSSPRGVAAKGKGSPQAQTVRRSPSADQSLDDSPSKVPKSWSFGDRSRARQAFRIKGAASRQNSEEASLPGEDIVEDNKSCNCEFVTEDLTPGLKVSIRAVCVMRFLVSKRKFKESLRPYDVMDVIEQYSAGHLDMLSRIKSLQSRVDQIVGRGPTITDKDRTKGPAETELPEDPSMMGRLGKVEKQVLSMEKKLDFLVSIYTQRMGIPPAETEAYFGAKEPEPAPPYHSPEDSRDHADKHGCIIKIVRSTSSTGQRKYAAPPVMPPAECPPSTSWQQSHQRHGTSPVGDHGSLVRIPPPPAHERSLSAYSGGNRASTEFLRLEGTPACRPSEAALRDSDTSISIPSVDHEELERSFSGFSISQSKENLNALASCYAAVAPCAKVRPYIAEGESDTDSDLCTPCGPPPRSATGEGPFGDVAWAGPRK
# KCNQ2 inh baseline: recorded beside KCNQ2 inh, whose call it bears; B-score; measured here: initial fluorescence intensity artifact check;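 brightness before thallium and not channel activity; 0 = typical well and far values either way flag optical interference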
# * marks the source's active call; other numbers are inactive results; i = inactive. A portion of the library (hit frequency here may not be typical).
# Every second line gives: KCNQ2 inh, KCNQ2 inh baseline
> CCN1C(=O)NC(=O)/C(=C\c2cn(CC(=O)N3CCCCC3)c3ccccc23)C1=O
    i, 1.3
> Fc1ccc(C[n+]2c(-c3ccccc3)cc(-c3ccccc3)cc2-c2ccccc2)cc1
    -6.3*, -0.78*
> COc1cccc(CCNCc2ccc(SC)cc2)c1
    i, 0.16
> CCCC[N+]12CCC(CC1)C(=C(c1ccccc1)c1ccccc1)C2
    i, 0.65
> CCOP(=S)(OCC)Oc1cc(C)oc(=O)c1Cl
    i, 2.7
> C=C1C(=O)O[C@H]2C[C@@H](C)[C@@H]3C=CC(=O)[C@@]3(C)C[C@H]12
    i, 0.38
> CCCCn1c(O)c(C(CC)=NCc2cc(OC)cc(OC)c2)c(=O)[nH]c1=O
    i, 1.1
> O=C(COc1ccc(Br)cc1)N1CCN(C2CCCC2)CC1
    i, 1
> COc1cc(/C=C/[N+](=O)[O-])ccc1OC(=O)c1cccnc1
    i, 0.05
> CCCNS(=O)(=O)c1ccc(OCC(=O)N2CCN(Cc3ccc4c(c3)OCO4)CC2)c(C)c1
    i, 1.8
> O=C(Nc1c(F)cc(F)cc1F)c1cccn(Cc2ccccc2)c1=O
    i, -0.09
> C=CCOC(=O)C1=C(C)OC(N)=C(C(=O)OCC)C12C(=O)N(CC(N)=O)c1ccccc12 (stereo not given)
    i, -0.06
> CCCCn1c(O)c(C(C)=NCCN2CCCCC2)c(=O)[nH]c1=O
    i, 0.65
> CC(=O)Nc1ccc(OC(=O)N(C)c2ccccc2)cc1
    i, -2.8
> O=[N+]([O-])c1cccnc1N1CCCNCC1
    i, 0.26
> O=C(COC(=O)Cc1ccccc1)NC(=O)NC1CCCCC1
    i, 0.61
> Nc1nonc1C(=O)N/N=C/c1ccc([N+](=O)[O-])o1
    i, -0.24
> CC(NCc1ccc(Cl)cc1Cl)C(O)c1ccccc1 (stereo not given)
    i, -0.97
> O=c1[nH]c(=O)n(C2CCCCCC2)c(O)c1C=NCCCN1CCOCC1
    i, -0.47
> CNC(=O)Oc1cccc(-c2cn3cc(Cl)ccc3n2)c1
    i, -0.5
> O=c1c2ccccc2nc(/C=C/c2ccccc2)n1-c1ccccc1O
    i, 2.7
> O=C(Cn1cc(C=C2C(=O)NC(=O)NC2=O)c2ccccc21)NCC1CCCO1 (stereo not given)
    i, 50
> Clc1ccc2nc3c(c(-c4ccccc4)c2c1)CNCC3
    i, 0.21
> Cc1sc2ncn(CC(=O)N3CCC4(CC3)OCCO4)c(=O)c2c1C
    i, -0.14
> COc1nc2ccccc2c(=O)n1-c1ccc(C)cc1
    i, -0.08
> O=C(c1cc(F)ccc1F)C1CCCN(Cc2cccc(Cl)c2)C1 (stereo not given)
    i, 3.9
> O=C(O)CCn1cc(C=C2C(=O)NC(=S)NC2=O)c(-c2cccc(Cl)c2)n1
    i, 1.8
> COc1cc2c(cc1OC)C(C(=O)N(C)C1CCCCC1)C1CCCCN1C2=O (stereo not given)
    i, -0.66
> O=C(O)COc1ccccc1/C=C1\C(=O)NC(=O)N(CCC2=CCCCC2)C1=O
    i, 0.02
> CCCCn1c(O)c(/C(C)=N/NC(=O)Nc2ccccc2)c(=O)[nH]c1=O
    i, -0.21
> COc1ccccc1CN1CCCCC1c1cccnc1 (stereo not given)
    i, -0.91
> Clc1cccc(CNCCc2ccc3c(c2)OCO3)c1
    i, -1
> CSCCC(N=Cc1c(O)n(-c2ccc(Cl)cc2)c(=O)[nH]c1=O)C(=O)OC(C)(C)C (stereo not given)
    i, 0.1
> CCOCCN1CCC(OC(C)=O)C(C)C1 (stereo not given)
    i, -1.5
> COc1ccc(/C=C2\C(=O)NC(=O)N(Cc3ccccc3)C2=O)c(OC)c1OC
    i, -0.26
> COc1ccc(/C=C2\C(=O)NC(=O)N(CCC3=CCCCC3)C2=O)c(OC)c1
    i, 0.45
> Cc1ccccc1N1CCN(Cc2ccc3c(c2)OCO3)CC1
    i, 0.84
> CC(C)Sc1nnc(OC(=O)N(C)C)n1-c1ccccc1
    i, 0.96
> CC(C)N1CCN(Cc2c[nH]c3ccccc23)CC1CCO (stereo not given)
    i, -0.63
> S=C1Nc2ccccc2Sc2ccccc21
    i, 0.12

# Profiles, quoted from the list. Values in the order: KCNQ2 inh | KCNQ2 inh baseline
# COc1ccc(/C=C2\C(=O)NC(=O)N(CCC3=CCCCC3)C2=O)c(OC)c1 is listed as i | 0.45
# CC(C)N1CCN(Cc2c[nH]c3ccccc23)CC1CCO (stereo not given) is listed as i | -0.63
# CC(C)Sc1nnc(OC(=O)N(C)C)n1-c1ccccc1 is listed as i | 0.96
# CCOCCN1CCC(OC(C)=O)C(C)C1 (stereo not given) is listed as i | -1.5

# More entries
# Every second line gives: KCNQ2 inh, KCNQ2 inh baseline
> Cc1cccc(CSc2nc3c(cc2C#N)CN(C)CC3)c1
    i, 0.78
> CCCCS(=O)(=O)N1CCN(C(=N)N[N+](=O)[O-])CC1
    i, -0.79
> Cc1nn(Cc2ccc(Cl)cc2Cl)c(Cl)c1C(=O)O
    i, 1.8
> CCN(CC)C(=O)c1ccc2c(c1)C1C=CCC1C(C(=O)O)N2 (stereo not given)
    i, 0.71
> CC(C)CCNC(=O)c1c(N)n(CC2CCCO2)c2nc3ccccc3nc12 (stereo not given)
    i, -0.67
> O=c1[nH]c(=O)n(Cc2ccccc2)c(O)c1C=NCCCO
    i, 1
> CN1CCC(O)(c2cccs2)C(C(=O)c2cccs2)C1 (stereo not given)
    i, -0.29
> CN1CCN(CC(=O)Nc2ccc(Cl)cc2C(=O)c2ccccc2)CC1
    i, -0.4
> CCOc1cccc(C2NCc3ccccc3-n3cccc32)c1O (stereo not given)
    -6.8*, 0.58*
> Cc1nc2ccccc2c(=O)n1-c1ccccc1C(F)(F)F
    i, -1
> O=c1[nH]c(=S)n(CCC2=CCCCC2)c(O)c1/C=N/N1CCOCC1
    i, -0.03
> C/C(=N\Nc1ccccc1)c1c(O)n(-c2ccccc2)c(=O)[nH]c1=O
    i, -1.1
> O=C(O)Cn1cc(/C=C2\C(=O)NC(=O)N(Cc3ccco3)C2=O)c2ccccc21
    i, 2.2
> Clc1ccc(COC(Cn2ccnc2)c2ccc(Cl)cc2Cl)cc1 (stereo not given)
    -8.3*, 0.01*
> CC(=O)c1c(C)n(Cc2ccccc2Cl)c2ccc(O)cc12
    i, -0.76
> O=C(COc1ccccc1)N1CCN(C2CC3CCC2C3)CC1 (stereo not given)
    i, -1.6
> Cc1ccc(-n2c(O)c(C=Nc3ccccc3N)c(=O)[nH]c2=O)cc1C
    i, 0.22
> Cn1cc(/C=C2\C(=O)NC(=O)N(c3ccccc3)C2=O)c2ccccc21
    i, 16
> COc1ccc(-n2c(=O)[nH]c3ccccc3c2=O)cc1
    i, 0.22
> Cc1ccccc1CN1CCN(C(=O)Cc2ccccc2)CC1
    i, 0.6

# Next part, overlapping the part above by 6 compounds.
# Every second line gives: KCNQ2 inh, KCNQ2 inh baseline
> CC(=O)c1c(C)n(Cc2ccccc2Cl)c2ccc(O)cc12
    i, -0.76
> O=C(COc1ccccc1)N1CCN(C2CC3CCC2C3)CC1 (stereo not given)
    i, -1.6
> Cc1ccc(-n2c(O)c(C=Nc3ccccc3N)c(=O)[nH]c2=O)cc1C
    i, 0.22
> Cn1cc(/C=C2\C(=O)NC(=O)N(c3ccccc3)C2=O)c2ccccc21
    i, 16
> COc1ccc(-n2c(=O)[nH]c3ccccc3c2=O)cc1
    i, 0.22
> Cc1ccccc1CN1CCN(C(=O)Cc2ccccc2)CC1
    i, 0.6
> COc1ccc(-n2c(O)c(/C=C/C=Nc3ccccc3)c(=O)[nH]c2=O)cc1
    i, 9.8
> CC(C)(C)C(=O)Nc1ccc(S(=O)(=O)N2CC3CC(C2)c2cccc(=O)n2C3)cc1 (stereo not given)
    i, -2.4
> C[C@@H](N)Cc1cnc[nH]1
    i, 2
> O=C(CCc1nc(-c2ccccc2F)no1)N1CCC2(CC1)OCCO2
    i, 0.13
> COP(=O)(/C=C(\Cl)c1ccccc1)/C=C(\Cl)c1ccccc1
    i, -0.09
> COc1ccc(C(=O)C2CCCN(C3CSCCSC3)C2)c(OC)c1 (stereo not given)
    i, -0.22
> Cc1ccnc(-n2c(-c3ccccc3)nc3ccccc3c2=O)c1
    i, -0.77
> CCOC(=O)CSCCOc1ccc(C=C2C(=O)NC(=O)NC2=O)cc1OC
    i, -0.89
> CCOc1ccc(Cl)cc1CNCCc1ccc(F)cc1
    i, -2.4
> Cc1nn(Cc2ccccc2)c(Cl)c1C(=O)OCC(=O)Nc1cccc2ccccc12
    i, -0.06

# Continued:
mol | KCNQ2 inh | KCNQ2 inh baseline
CC/C(CC(c1ccccc1)c1c(O)c2ccccc2oc1=O)=N\NC(N)=S (stereo not given) | i | 0.18
COc1cccc(NC2=NCCCS2)c1 | i | -1.2
Cc1cccc(OP(=O)(NCc2ccccc2)Oc2cccc(C)c2)c1 | i | -0.5
O=C(NC1CC1)C1CSC(c2cccnc2)=N1 (stereo not given) | i | 1.2
CNC(=O)Oc1ccc(C(=O)N2c3ccccc3NC(=O)C2C)cc1 (stereo not given) | i | 0.08
CC(Cc1cnccn1)NCc1c(C(=O)N2CCCCCCC2)nc2ccc(Cl)cn12 (stereo not given) | i | 2.9
CN(C)C(=O)Oc1cccc(OCc2n(C)c3ccccc3[n+]2C)c1 | i | 0.47
O=C(COc1ccc2ccc(=O)oc2c1)N1C[C@H]2C[C@@H](C1)c1cccc(=O)n1C2 | i | 1.2
C[n+]1c2ccccc2nc2ccc(NCCO)cc21 | i | 0.02
O=C(CCN1CCCCC1)Nc1ccc(Cl)cc1C(=O)c1ccccc1 | -5.6* | -1.3*
CC/C(=N\NC(=O)Nc1ccccc1)c1c(O)n(Cc2ccccc2)c(=O)[nH]c1=O | i | 1.4
COc1ccc(-n2c(O)c(C=Nc3c(C)n(C)n(-c4ccccc4)c3=O)c(=O)[nH]c2=O)cc1 | i | 3.5
Fc1ccc(CNCCc2ccc3c(c2)OCO3)cc1 | i | -1
CN1CCN(C(=O)Cc2nc3ccccc3[nH]2)CC1 | i | -0.06
Cn1cc(C(=O)NP(=O)(N2CCOCC2)N2CCOCC2)c2ccccc21 | i | 0.46
O=c1c2ccccc2nc(/C=C/c2ccc(F)cc2)n1-c1ccccn1 | i | -2.9
CN1CCN2c3ccc(N)cc3CC3(C(=O)NC(=O)NC3=O)C2C1 (stereo not given) | i | -1.2
N#Cc1ccccc1Cn1cc(C(=O)c2ccccc2F)c2ccccc21 | i | -0.32
C/C(=N\NC(=O)c1ccncc1)c1c(O)n(-c2ccccc2)c(=O)[nH]c1=O | i | 2.3
O=C(c1cc(-c2cccnc2)nc2ccc(Cl)cc12)N1CCC2(CC1)OCCO2 | i | -0.08
CCCCN1CCC(O)(c2ccccc2)C(C(=O)c2ccccc2)C1 (stereo not given) | i | 0.02
O=C(Cc1ccccc1)OCn1nnc2ccccc2c1=O | i | 3.5
O=c1[nH]c(=O)n(Cc2ccc(F)cc2)c(O)c1C=NCCCn1ccnc1 | i | -0.77
CCOC(=O)c1c(/N=C/C2C(=O)NC(=S)NC2=O)sc2c1CCC2 | i | 1.2
CC(C)c1ccc(N=Cc2c(O)n(C3CC3)c(=S)[nH]c2=O)cc1 | i | 0.99
C=CCN1C(=O)NC(=O)/C(=C/c2cc3c4c(c2)CCCN4CCC3)C1=O | i | 2
O=c1c2ccccc2nc(CN2CCCCCC2)n1-c1ccc(F)cc1 | i | -0.95
C/C(CC(c1ccccc1)c1c(O)c2ccccc2oc1=O)=N\Nc1ccc([N+](=O)[O-])cc1[N+](=O)[O-] (stereo not given) | i | -0.46
CC(=O)N1CCC2(CC1)CC(=O)c1cc(OCC(=O)N3CCN(C)CC3)ccc1O2 | i | 2.8
Cc1cc(OCC(=O)NCC2CCC(C(=O)O)CC2)c2c3c(c(=O)oc2c1)CCC3 (stereo not given) | i | 0.9
CCOC(=O)c1c(/N=C/C2C(=O)NC(=S)NC2=O)sc(C)c1C | i | 0.66
O=C(CN1CCCCC1)c1ccc2c(c1)OCO2 | i | -1.6
COc1ccc(-c2[nH]ncc2CNC(C)Cc2cccc(C)n2)cc1F (stereo not given) | i | -0.03
Fc1ccc(N2CCN(Cc3cc4c(cc3Br)OCO4)CC2)cc1 | i | 0.96
CCCCn1c(=O)c(C(=O)Nc2ccccc2Cl)c(O)c2ccccc21 | i | -0.65
Nc1c(C(=O)NCCN2CCOCC2)c2nc3ccccc3nc2n1Cc1ccccc1 | i | 0.02
C#C[C@@]1(O)CCC2C3CCC4=C/C(=N/OCC(=O)NC(C(=O)NC(CC(C)C)C(=O)O)C(C)C)CC[C@]4(C)C3CC[C@@]21C (stereo not given in full) | i | 0.02
C[N+](C)(C)CCc1ccc(O)cc1 | i | 1.1
OCC#CC[N+]1(CC#Cc2ccccc2)CCOCC1 | i | 1.1
Cc1cccnc1-n1c(CN2C(=O)c3ccccc3C2=O)nc2ccccc2c1=O | i | -1.3
O=C(c1cc(C(=O)NCc2ccccc2)c(=O)n(Cc2ccccc2)c1)c1cc(Br)ccc1O | -8.2* | 0.06*
CC(C)=CCc1c(O)cc2c(c1O)C(=O)CC(c1ccc(O)cc1)O2 (stereo not given) | i | -1.9
Cc1nn(Cc2ccccc2Cl)c(Cl)c1C(=O)OCC(=O)NC(=O)NC1CCCCC1 | i | -2.5
O=C(c1cn(Cc2ccccc2F)c2ncccc12)C(F)(F)F | i | -1.7
O=C(COc1ccc(Cl)cc1)N(c1ccccc1Cl)C1CN2CCC1CC2 (stereo not given) | i | -0.09
CN(c1ccccc1)c1ccc([N+](=O)[O-])c2nonc12 | i | 1.6
CCOc1cc2c(cc1OCC)-n1cccc1C(c1ccc(C(C)C)cc1)NC2 (stereo not given) | i | 1.6
Cc1ncc(CN2CCCC(C(=O)c3cccc(OC(C)C)c3)C2)s1 (stereo not given) | i | -0.74
O=c1c2ccccc2nc(-c2ccccc2)n1-c1ccc(O)cc1 | i | 0.35
COCCNC(=O)CN1C2CCC1CC(O)(c1cccnc1)C2 (stereo not given) | i | -2.5

# Source: PubChem BioAssay
